# Screening results deposited in PubChem BioAssay by several laboratories.
# PKD1 inh: inhibitors of human PKD1 kinase. Q15139. AID 797. PKD1 kinase fluorescence polarization assay. 200,000 tested, 0.056% active. inhibition, %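 (about 10 µM by stock and volumes)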;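 active means inhibition of 50% or more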;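 further: controls were vehicle for no effect and a reference inhibitor for full effect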
# HSV augment: HSV replication enhancement | HSV replication augmentation in cells, fold increase | maximum fold increase | 220,000 tested, 0.005% active | AID 1956;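 active means peak rise of 1.5-fold or more in the series; inconclusive means self-fluorescent or not available for retest; tested in PC3 cells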;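 further: first round at 10 µM; read as green reporter fluorescence; hits show the peak of a series up to 25 µM; 1 = signal of infected wells without compound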
# Insulin prom inh: TRM-6 insulin promoter activity inhibition; TRM-6 cells (human fetal islet line), insulin promoter-eGFP reporter, imaging; reporter expression induced with tamoxifen; inhibition, % at 2 µM; 130,000 tested, 0.9% active; AID 1273;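 active means inhibition above the mean plus 3 SD, with well images judged a real hit on visual review, cut at about 60% in these data, passing the limit was not always enough; inconclusive means inhibition over the cutoff but images rejected on review; inactive means inhibition not above the cutoff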
# GALR2 ag: agonists of human galanin receptor 2 (GALR2); O43603; GALR2-expressing cells, agonist activation read-out; activation, %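 (tested at 5 µM)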; 140,000 tested, 0.48% active; AID 803;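 active means above mean plus 3 SD of all compounds, about 5% in these data, not always enough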;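 further: 0% = vehicle buffer wells and 100% = reference agonist at full effect; tested in CHO reporter cells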
# Target sequence (O43603 whole entry, looked up): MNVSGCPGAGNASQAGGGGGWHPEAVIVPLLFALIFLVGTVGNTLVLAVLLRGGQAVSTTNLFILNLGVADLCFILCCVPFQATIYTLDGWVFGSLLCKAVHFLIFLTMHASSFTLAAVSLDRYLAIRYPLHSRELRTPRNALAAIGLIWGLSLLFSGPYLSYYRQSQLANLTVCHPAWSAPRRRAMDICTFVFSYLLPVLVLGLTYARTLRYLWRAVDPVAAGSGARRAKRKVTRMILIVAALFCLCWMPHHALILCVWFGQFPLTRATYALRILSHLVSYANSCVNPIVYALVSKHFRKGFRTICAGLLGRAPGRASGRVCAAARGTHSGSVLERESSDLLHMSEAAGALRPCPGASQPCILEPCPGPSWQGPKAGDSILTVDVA
# RGS16-Gao HTS: regulators of human RGS16-Galphao interaction; O15492+P09471; 220,000 tested, 0.38% active; binding response (% of control), % at 10 µM; bead-based flow cytometry RGS16-Galphao binding, fluorescence; actives lie on both sides; AID 1441;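 active means below 25% or above 175%, edge rows of some plates excepted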;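 further: Galphao activated by GDP with aluminum fluoride before binding; 100% = wells without compound and 0% = beads without RGS; some results beyond the cut were filed as inactive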
# Target sequence (O15492 whole entry, looked up): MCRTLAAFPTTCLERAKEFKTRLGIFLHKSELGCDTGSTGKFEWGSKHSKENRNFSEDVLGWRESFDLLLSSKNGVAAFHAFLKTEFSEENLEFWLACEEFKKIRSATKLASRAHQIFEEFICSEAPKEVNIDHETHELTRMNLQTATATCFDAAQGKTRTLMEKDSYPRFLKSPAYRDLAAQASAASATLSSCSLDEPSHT
# Target sequence (P09471 whole entry, looked up): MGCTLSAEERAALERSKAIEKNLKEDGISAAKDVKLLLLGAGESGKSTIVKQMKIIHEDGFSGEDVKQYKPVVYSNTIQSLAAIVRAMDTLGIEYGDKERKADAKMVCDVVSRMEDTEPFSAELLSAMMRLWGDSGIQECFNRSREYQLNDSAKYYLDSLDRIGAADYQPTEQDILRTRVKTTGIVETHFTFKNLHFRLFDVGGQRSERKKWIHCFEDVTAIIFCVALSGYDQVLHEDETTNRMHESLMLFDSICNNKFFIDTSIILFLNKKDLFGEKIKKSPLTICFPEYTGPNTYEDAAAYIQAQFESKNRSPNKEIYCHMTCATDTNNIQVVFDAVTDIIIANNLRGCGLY
# Insulin prom inh cell count: second read-out of Insulin prom inh, no call of its own (marks repeat the call); normalized cell count, %; measured here: cell count, toxicity; reference of the scale not given here;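 cells exposed to compound for 48 h; stained nuclei by imaging scaled within each plate; lower means fewer cells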
# HSV augment primary fold: further read-out of HSV augment, marked with its call; fold increase; compound at 10 µM; measured here: primary screen fold increase 10 uM; tested in PC3 cells;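 GFP signal in the first replicate; 1 = infected wells without compound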
# * marks the source's active call; other numbers are inactive results; i = inactive; u = inconclusive; x = not tested or not shown; [ ] = dose if it differs, or a comment. Rows are unselected; any-hit rate near 1.3%.
SMILES,PKD1 inh,HSV augment,HSV augment primary fold,Insulin prom inh,Insulin prom inh cell count,GALR2 ag,RGS16-Gao HTS
O=C(/C=C/c1ccco1)c1ccc(NC(=O)C23CC4CC(CC(C4)C2)C3)cc1,-6,i,1.1,x,x,-1.3,96
Cc1ccc2c(c1)c1ncn(Cc3ccc(F)cc3)c(=O)c1n2C,x,i,0.82,x,x,x,102
COc1ccc(NC(=O)C(C)Oc2ccc(/C(C)=N\O)cc2)cc1 (centres undefined),-4,x,x,44,121,-0.3,99
CCOC(=O)c1c(C)[nH]c(C(=O)Nc2ccc3c(c2)OCO3)c1C,2,x,x,x,x,-2.4,94
N#CC(C(=S)Nc1ccccc1)c1nc2ccccc2[nH]1 (centres undefined),x,i,1,x,x,x,102
Cc1ccc(C(=O)NC2CCCCC2)cc1,-5,x,x,6,57,-1.3,102
COc1ccc(CC(=O)NC(C)c2nnc(SCC(=O)c3ccc(OC)cc3)n2C)cc1 (centres undefined),-2,i,0.97,x,x,x,102
Cc1ccc2c(CC(=O)NCC3COc4ccccc4O3)coc2c1 (centres undefined),1,i,0.91,6,140,0.2,106
N#Cc1cn(Cc2ccccc2)c2ccccc12,-6,i,1.2,-347,52,-1.2,101
COCC(=O)Nc1nc2n(n1)C(c1ccccc1Cl)CC(c1ccc(OC)cc1)N2 (centres undefined),-1,i,1.1,x,x,0.5,98
O=C(CSc1nnc(-c2ccc(F)cc2)c2ccccc12)Nc1c(F)cccc1F,-12,i,0.8,0,100,-2.3,96
S=c1[nH]nc(COc2ccc3c(c2)OCO3)n1-c1ccccc1,-5,i,0.99,0,91,-1.9,44
COc1ccc(NS(=O)(=O)c2c(F)cc(F)c(Cl)c2F)cc1S(=O)(=O)N1CCCCC1,4,i,0.91,27,131,0.1,107
COc1ccc(-c2nsc3c(SCC(=O)Nc4cc(C)ccc4C)ncnc23)cc1,-7,i,0.93,-16,47,-0.3,96
CCN1CCc2c(sc(NC(=S)NC(=O)c3ccc(Cl)cc3)c2C(N)=O)C1,x,u,x,x,x,x,92
O=C(CSc1nc2ccccc2o1)Nc1ccccc1N1CCCCCC1,-4,i,0.81,13,91,-2.5,100
CNC(=O)Cc1csc2ccc(Cl)cc12,4,i,1.1,x,x,-1.4,84
N#Cc1ccc(/C=N/N=C(N)N)cc1,-3,i,0.86,5,79,-2.7,244*[activator]
O=C(/C=C/c1ccccc1)n1cnnc1SC/C=C/c1ccccc1,-7,i,0.88,-7,107,-0.3,107
CC1(C)CC(=O)c2cc(OCC(=O)O)ccc2O1,-2,i,0.97,x,x,-0.4,54
O=C(Nc1nnc(C2CC2)s1)C1Cc2ccccc2CN1S(=O)(=O)c1ccccc1F (centres undefined),-7,x,x,-19,66,-0.3,77
CCOC(=O)COc1cccc2c(=O)n(CC(=O)NCc3ccc4c(c3)OCO4)ccc12,-4,i,0.45,x,x,-1.3,112
Cc1ccc(-n2nnnc2SCC(=O)NNC(=O)c2ccco2)cc1C,-6,i,0.95,-20,88,-1.7,127
Cc1ccc(Nc2ccc3nonc3c2[N+](=O)[O-])cc1,-4,i,1,8,157,x,104
COC(=O)c1c(-c2ccccc2)csc1NC1=NS(=O)(=O)c2ccccc21,-9,i,0.96,15,72,-0.2,36
CCOC(=O)c1c(NC(=O)C(=O)N/N=C/c2ccccc2OC)sc2c1CCCCC2,13,i,1.2,x,x,-0.4,105
CCOc1ccc(CCNC(=O)COc2cc(=O)n(C)c3ccccc23)cc1OCC,-5,i,0.98,-7,78,x,89
C=CCN(CC=C)C(=S)NC(=O)c1ccc(OC)cc1,-4,i,0.92,x,x,x,100
COc1ccccc1OCCCCN1CCN(c2ccccc2OC)CC1,2,i,0.98,29,123,-0.8,106
Cc1cc(C(=O)Nc2c(C)nn(Cc3c(Cl)cccc3Cl)c2C)no1,-6,i,0.93,-40,132,-1.5,103
O=C(CCCCn1c(=O)c2ccccc2n(Cc2ccccc2)c1=O)NC1CCN(Cc2ccccc2)CC1,-5,i,0.74,x,x,x,102
O=C(C1CCN(S(=O)(=O)c2cccc3cccnc23)CC1)N1CCN(c2ccccn2)CC1,-12,x,x,x,x,-1.9,98
Cn1cnnc1SCC(=O)NC1CCCc2ccccc21 (centres undefined),-3,i,0.98,43,69,x,102
COc1cc(C(=O)Nc2ccc3c(c2)OCCO3)ccc1-n1cnnn1,6,i,0.81,43,102,-1.9,98
Cc1sc(NC(=O)CCl)c(C(=O)c2ccccc2)c1C,12,i,0.79,6,66,-1.8,94
CCOC(=O)CCCN1CC(O)=C(c2nc(-c3ccc(Cl)cc3)cs2)C1=N,1,i,1,7,90,x,98
CC(=O)c1cccc(NC(=O)CCCOc2ccc(C)cc2)c1,-8,i,0.9,13,68,-0.5,71
N#CCCn1cc(C(CC(=O)c2ccc(Br)cc2)C(=O)O)c2ccccc21 (centres undefined),2,i,1,x,x,-2.6,76
CC(C)N1CCc2c(sc(NC(=O)c3cc(-c4cccs4)nc4ccccc34)c2C(N)=O)C1,-3,i,0.85,-210,98,-0.6,x
CCOc1ccc2nc(N3CCCC(C(=O)NCCCN4CCOCC4)C3)sc2c1 (centres undefined),6,i,0.87,x,x,-0.8,99

# Complete entries from above.
# O=C(CCCCn1c(=O)c2ccccc2n(Cc2ccccc2)c1=O)NC1CCN(Cc2ccccc2)CC1 as listed: PKD1 inh: -5; HSV augment: i; HSV augment primary fold: 0.74; Insulin prom inh: x; Insulin prom inh cell count: x; GALR2 ag: x; RGS16-Gao HTS: 102
# Cc1sc(NC(=O)CCl)c(C(=O)c2ccccc2)c1C as listed: PKD1 inh: 12; HSV augment: i; HSV augment primary fold: 0.79; Insulin prom inh: 6; Insulin prom inh cell count: 66; GALR2 ag: -1.8; RGS16-Gao HTS: 94
# O=C(Nc1nnc(C2CC2)s1)C1Cc2ccccc2CN1S(=O)(=O)c1ccccc1F (centres undefined) as listed: PKD1 inh: -7; HSV augment: x; HSV augment primary fold: x; Insulin prom inh: -19; Insulin prom inh cell count: 66; GALR2 ag: -0.3; RGS16-Gao HTS: 77

# (continued)
SMILES,PKD1 inh,HSV augment,HSV augment primary fold,Insulin prom inh,Insulin prom inh cell count,GALR2 ag,RGS16-Gao HTS
Cc1cc(NC(=O)C2Oc3ccccc3OC2C)no1 (centres undefined),-1,i,1,9,108,x,101
CC(Cc1cccs1)NC(=O)Nc1cccc(Cl)c1 (centres undefined),-7,x,x,-62,60,-3.6,106
COc1ccc(/C=N/N2CCN(C3c4ccccc4-c4ccccc43)CC2)cc1OC,3,i,0.93,x,x,-2.3,100
Cc1ccc(S(=O)(=O)NCC(=O)OCC(=O)N2N=C(c3ccc(Cl)cc3)CC2c2ccco2)cc1C (centres undefined),-7,i,0.99,-7,168,1.0,104
CCN(CC)C(=O)CN(C#N)c1nc(NC(C)C)nc(NC(C)C)n1,-1,i,0.86,-45,119,0.1,79
CC(SCC(=O)Nc1ccc(S(=O)(=O)N2CCCCC2)cc1)C(=O)O (centres undefined),-7,i,0.9,22,148,1.4,92
OC(CSc1ccccc1Cl)CN1CCN(c2ccccc2F)CC1 (centres undefined),-3,i,1.2,-9,120,-2.1,101
Cc1ccc(Nc2nc(-c3ccc(S(=O)(=O)N4CCOCC4)cc3)cs2)cc1Cl,1,i,0.65,0,90,1.4,100
COc1cc(C)c(CNc2cc(C)cc(C)c2)cc1C,0,i,1,-23,202,-0.4,96
CCOc1ccc(CSC(=N)N)cc1[N+](=O)[O-],0,x,x,x,x,-1.5,195
CCOC(=O)CSc1snnc1-c1ccccc1,-3,i,0.97,0,97,-2.9,107
O=C(NC(=O)c1ccc(C(F)(F)F)cc1)Nc1ccc(-c2cnco2)cc1,x,i,0.95,x,x,x,97
Cn1nc(-c2ccccc2)c2ncc(C(F)(F)F)cc21,-4,i,1.1,x,x,x,101
COc1nc(NC23CC4CC(CC(C4)C2)C3)nc(OC)n1,2,i,0.96,x,x,0.0,100
c1ccc2c(c1)oc1c(N3CCOCC3)ncnc12,-4,i,0.89,x,x,-3.0,81
COc1ccc(N2CCN(C(=O)C(OC(C)=O)c3ccccc3)CC2)cc1 (centres undefined),0,i,0.96,-31,106,-1.5,102
Cc1ccc[n+](Cc2ccc([N+](=O)[O-])cc2)c1,5,i,1,x,x,x,105
CC(C)[C@H](NC(=O)NCCc1ccc(Cl)cc1)C(=O)O,3,i,0.98,-43,78,-2.1,109
CCc1cc2c(=O)c(-c3nc4ccccc4n3C)c(CCCC(=O)O)oc2cc1OC(=O)C(C)(C)C,3,i,0.9,-40,110,x,102
O=C(Nc1ccc(NC(=O)c2cc([N+](=O)[O-])ccc2N2CCOCC2)cc1)c1cccs1,-1,i,1.1,x,x,x,96
N#CC1=C(N)Oc2ccc3ccccc3c2C1c1cccnc1 (centres undefined),-3,i,0.84,0,60,x,94
Cc1ccc(/C(O)=C/C(=O)C(=O)NC23CC4CC(CC(C4)C2)C3)cc1,x,i,0.87,x,x,x,96
COC(=O)c1sc(=S)sc1C(=O)OC,12,i,0.89,x,x,-3.2,106
Cc1cc(NC(=O)Cc2ccccc2)nc2c1c(=O)oc1ccccc12,7,i,0.95,x,x,-2.4,83
Cc1[nH]c2ccccc2c1CCNC(=O)c1ccc2c(c1[N+](=O)[O-])C(=O)c1ccccc1C2=O,2,x,x,-2,91,-0.2,92
CSCCC(CO)NC(=O)OCc1ccccc1 (centres undefined),1,i,1,12,103,-1.9,114
O=C1Nc2ccccc2C12OCCS2 (centres undefined),x,i,1,x,x,x,104
Nc1ccnn1Cc1cccs1,-10,i,0.96,x,x,-2.1,110
Cc1cc(NC(C)C)n2c(nc3ccccc32)c1C#N,2,i,0.85,-100,95,x,106
C=CCn1nnnc1-c1cccc(Cl)c1,-2,i,1.1,-24,118,x,104
Cc1ccc(NC(=O)CCS(=O)(=O)c2ccccc2)cc1S(=O)(=O)N1CCOCC1,-1,i,0.92,-40,189,x,102
Cc1cc(C)n2c(SCc3nnc(-c4cccs4)o3)nnc2n1,-2,i,1,x,x,x,102
CC(C(=O)Nc1ccccc1Oc1ccccc1)c1ccccc1 (centres undefined),-5,i,0.92,-14,116,0.9,111
Cc1ccc(OCCn2c(=S)[nH]c3c(N)ncnc32)cc1,5,i,0.84,-7,137,x,96
O=C(O)c1cccc(N2C(=O)c3cccc4c(Cl)ccc(c34)C2=O)c1,1,i,1.2,x,x,x,100
CCNC(=S)Nc1ccccc1-c1ccccc1,-3,i,0.94,-20,132,-1.0,102
CCC(C)Nc1nc2c(c(=O)n(C)c(=O)n2C)n1C (centres undefined),x,i,0.96,x,x,x,135
Cn1ccnc1C(O)(c1ccccc1)c1ccccc1,x,i,0.83,x,x,x,100
COc1cccc(-c2nnc(NC(=O)c3cccc(F)c3)o2)c1,x,i,0.96,x,x,x,101
CCO[C@@H]1OC(C(=O)N2CCN(Cc3ccc4c(c3)OCO4)CC2)=C[C@H](c2ccc(Br)cc2)[C@H]1CCCO,5,i,0.79,x,x,x,89
CC(C)c1c(O)cc(-c2ccncc2)n(-c2ccc(Cl)cc2)c1=O,1,i,1,-18,111,0.5,133
Cc1cc(C)nc(Nc2n[nH]c(COc3ccc4ccccc4c3)n2)n1,1,i,0.85,-41,83,-1.4,99
Nc1nonc1C(=O)NCCNc1ccc([N+](=O)[O-])cc1,x,i,1.2,x,x,x,98
COc1ccc(F)cc1S(=O)(=O)n1nnc2ccccc21,7,i,1,-59,42,x,111
CCOc1ccc(OCC)c(NC(=O)C2CCCN(c3nc(C)cc(C)n3)C2)c1 (centres undefined),-6,i,0.93,x,x,-1.8,143
O=C(CC12CC3CC(CC(Br)(C3)C1)C2)NC1=NCCS1,-4,i,1.1,x,x,x,101
O=C(NCc1ccc2c(c1)OCO2)c1ccccn1,-5,i,1,-71,141,-1.8,101
O=C(CSc1nnnn1C1CCCC1)N1CCOCC1,8,i,1,11,86,x,99
CCOc1ccc(Nc2nc(Cc3nnc(SCC(=O)c4ccc(C)cc4)o3)cs2)cc1,0,i,0.82,-32,96,-0.2,92

# Some of these compounds in order of SMILES length, low to high:
SMILES,PKD1 inh,HSV augment,HSV augment primary fold,Insulin prom inh,Insulin prom inh cell count,GALR2 ag,RGS16-Gao HTS
O=C(NCc1ccc2c(c1)OCO2)c1ccccn1,-5,i,1,-71,141,-1.8,101
O=C(CC12CC3CC(CC(Br)(C3)C1)C2)NC1=NCCS1,-4,i,1.1,x,x,x,101
CC(C)c1c(O)cc(-c2ccncc2)n(-c2ccc(Cl)cc2)c1=O,1,i,1,-18,111,0.5,133
